Cruzain Triton = qHTS Assay for Promiscuous and Specific Inhibitors of Cruzain (with detergent) | Cruzipain (Trypanosoma cruzi), P25779 | purified cruzain, Z-FR-AMC fluorescence, 0.01% Triton | Potency, µM, without a hit: max response, negative = inhibition, most hits filed as inhibitors | hit rate 0.43% among 200,000 | AID 1478, 2009;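 further: plate controls were neutral wells for no effect and buffer without enzyme for full effect; nearly all actives have a fitted effect of over 40% in size; top concentration of the series not given in the record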
Target sequence (P25779 123-467 limits assumed): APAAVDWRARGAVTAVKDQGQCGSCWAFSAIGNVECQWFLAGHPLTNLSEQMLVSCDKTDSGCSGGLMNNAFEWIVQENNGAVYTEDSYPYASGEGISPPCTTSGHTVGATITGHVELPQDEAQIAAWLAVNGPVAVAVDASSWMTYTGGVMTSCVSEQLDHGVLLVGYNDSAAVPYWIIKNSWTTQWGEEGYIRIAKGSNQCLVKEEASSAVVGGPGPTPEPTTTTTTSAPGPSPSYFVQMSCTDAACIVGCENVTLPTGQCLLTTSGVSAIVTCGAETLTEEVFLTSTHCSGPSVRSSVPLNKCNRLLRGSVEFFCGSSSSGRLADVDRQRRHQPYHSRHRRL
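Sodium acetate buffer (100 mM, pH 5.5) containing 5 mM DTT and 0.01% Triton X-100 hosted 1.5 nM cruzain and test compound for 15 min at room temperature. Cleavage of 2 uM Z-FR-AMC was then tracked by fluorescence.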
SARS PLpro yeast = qHTS of Yeast-based Assay for SARS-CoV PLP. S. cerevisiae expressing SARS-CoV PLpro, growth rescue; control for the full effect not named in the record. Potency, µM (doses to about 32.9 µM), inactives show top-dose activity, positive = growth rescue. hit rate 0.19% among 330,000; active means well fitted rising curve with a large enough effect; inconclusive means small, poorly fitted or top-dose-only effect; inactive means no such curve, though single readings can be large or run the other way; further: 0% is about no effect; nearly all actives have a fitted effect of over 55% in size; growth read by luminescence after 48 h
MARV entry inh = qHTS for inhibitors of binding or entry into cells for Marburg Virus; Marburg virus pseudotyped entry inhibition, cell reporter; control for the full effect not named in the record; about a third of the inactives were read at about 46 µM; Potency, µM (top dose mostly 37.8 µM), for inactives: at the top dose activity change, negative = inhibition, usual class: inhibitors; hit rate 1.8% among 300,000; active = well fitted inhibition curve with a large enough effect; inconclusive = small, poorly fitted or top-dose-only effect, or effect the other way; inactive = flat fitted curve, though single readings scatter; tested in HEK293 cells; about a fifth of its hits are not listed in these tables; further: on the % scale 0 is the no-effect control and ±100 the full control effect; luciferase read-out
Cruzain inh noDet = qHTS Assay for Promiscuous and Specific Inhibitors of Cruzain (without detergent); purified cruzain, Z-FR-AMC fluorescence, no detergent; AID 1476, 2009; Cruzipain (Trypanosoma cruzi), P25779; Potency, µM, for inactives: max response, negative = inhibition, usual class: inhibitors; hit rate 2.3% among 200,000;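 further: plate controls were enzyme without inhibitor for no effect and buffer without enzyme for full effect; nearly all actives have a fitted effect of over 40% in size; top concentration of the series not given in the record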
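Detergent-free condition (0.00005% Triton X-100) in acetate buffer pH 5.5 with DTT. 1.5 nM enzyme and compound were pre-mixed 15 min, then 2 uM Z-FR-AMC substrate added; reaction progress from fluorescence change between first and third reads (60 s).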
LASV entry inh = qHTS for Inhibitors of binding or entry into cells for Lassa Virus | Lassa virus pseudotype entry inhibition, cell reporter; control for the full effect not named in the record | Potency, µM (series often up to 37.9 µM), inactives show top-dose activity change, negative = inhibition, actives largely listed as inhibitors | hit rate 1.2% among 300,000 | AID 540256, 2011; active means well fitted inhibition curve with a large enough effect; inconclusive means small, poorly fitted or top-dose-only effect, or effect the other way; inactive means flat fitted curve, though single readings scatter; tested in HEK293 cells; further: on the % scale 0 is the no-effect control and ±100 the full control effect; nearly all actives have a fitted effect of over 50% in size; luciferase read-out
StopGo reporter = High Throughput Screening for Foot and Mouth Disease Virus Antivirals. AID 1159524, 2015. human cells with a luciferase reporter of 2A StopGo recoding; control for the full effect not named in the record. hit rate 1.2% among 410,000. Potency, µM (titrated, usually from 57.9 µM), for inactives: top-dose signal change, negative = less light; active = well fitted falling curve with a large enough effect; inconclusive = small, poorly fitted or top-dose-only effect; inactive = no such curve, though single readings can be large or run the other way; tested in HEK293T cells; further: on the % scale 0 is the no-effect control and ±100 the full control effect; nearly all actives have a fitted effect of over 45% in size; luciferase light after 4 h
NS1 inh = qHTS Assay for Inhibitors of Influenza NS1 Protein Function; S. cerevisiae slowed by influenza A NS1, growth recovery by OD600; Potency, µM (top dose mostly 46.1 µM), for the others: at the top dose activity, positive = more growth; hit rate 0.4% among 270,000; AID 2326, 2010; active means well fitted rising curve with a large enough effect; inconclusive means small, poorly fitted or top-dose-only effect; inactive means no such curve, though single readings can be large or run the other way; further: nearly all actives have a fitted effect of over 50% in size
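Recovery from NS1-induced slow growth read by OD600 in budding yeast switched to galactose assay medium (pH 6.0, -URA) at 1:100 dilution. Compound 23 nl per well; the matching strain lacking NS1 serves as control.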
RE007 growth inh = qHTS Assay for Inhibitors of the HIV-1 protein Vpr; hit rate 0.21% among 360,000; S. pombe RE007 Vpr strain, BacTiter-Glo ATP luminescence, 24 h; control for the full effect not named in the record; Potency, µM (doses to about 92.2 µM), inactives show at the highest dose activity change, negative = less growth; active = well fitted falling curve with a large enough effect; inconclusive = small, poorly fitted or top-dose-only effect; inactive = no such curve, though single readings can be large or run the other way;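 further: on the % scale 0 is the no-effect control and ±100 the full control effect; nearly all actives have a fitted effect of over 50% in size; the assay follows cell death caused by Vpr and the record does not say whether a fall means rescue or toxicity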
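Fission yeast RE007 carrying one integrated HIV-1 vpr copy, seeded at OD 0.01 in PMG+AL medium with 23 nL pinned compound. Grown 24 h at 30 degrees; viability read by BacTiter-Glo luminescence after 5 min.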
An asterisk follows results filed as active; ? = inconclusive; · = not tested or not shown; & = joins results of further samples; [ ] = remark or other dose. Unless noted, the call rests on the fitted dose curve; in most records, active means well fitted curve in the direction sought with a large enough effect; inconclusive means small, poorly fitted or top-dose-only effect, or another doubt; inactive means no such curve, though single readings can be large; an effect the other way counts as inactive or inconclusive. Potency means the concentration at half of the fitted maximal effect.

SMILES	Cruzain Triton	SARS PLpro yeast	MARV entry inh	Cruzain inh noDet	LASV entry inh	StopGo reporter	NS1 inh	RE007 growth inh
CC(C)(C)N1C(=O)c2ccc(C(=O)Nc3ccc(-c4nc5ccccc5[nH]4)cc3)cc2C1=O	-2.9%	9%	?	8%	10%	13%	?	9%
CCN(CC)CCN1C(=O)C(=O)/C(=C(/O)c2c(C)[nH]c(C(=O)OC)c2C)C1c1ccc(C)o1 (configuration not stated)	·	0%	0%[46.1 µM]	·	-27%	-7%	0%	14%
CCNC(=S)N1CCN(S(=O)(=O)c2ccccc2C(F)(F)F)CC1	·	1%	-18%[46.1 µM]	·	-1%	-18%	0%	13%
CCc1cc2cc(OC)ccc2nc1SCC(=O)NNC(=O)c1ccco1	·	1%	?	·	?	1%	4%	-2%
Cc1ccc(S(=O)(=O)N[C@H](C(=O)Oc2ccc3c(C(F)(F)F)cc(=O)oc3c2)c2ccccc2)cc1	-23%	-11%	-29%	-12%	1%	?	-52%	-18%
O=C1CC(c2ccccc2)n2nc(NC(=O)c3ccccc3)nc2N1 (configuration not stated)	3.3%	1%	-2%	5%	2%	0%	12%	2%[3.69 µM]
CCOc1ccc(C(=O)NC(=S)NC2CCCC2)cc1[N+](=O)[O-]	-6.3%	8%	0%	-18%	-6%	?	18%	8%
O=C(Cn1ncc2c(=O)oc3ccccc3c21)NCCc1ccsc1	-13%	6%	·	8%	·	-13%	20%	7%
CCc1ccc(CNCc2c(C(=O)O)n(Cc3cccc(F)c3)c3cc(OC)ccc23)cc1	-8.4%	·	·	-1%	?	-18%	·	·
Cc1c(C(=O)N/N=C/c2ccc(O)c(Br)c2)sc(N)c1C#N	-7.0%	18%	?	10%	?	-5%	3%	-3%
CCOC(=O)C1CCCN(c2nc3ccccc3nc2C(C#N)C(=O)NCc2ccccc2)C1 (configuration not stated)	4.3%	-6%	?	?	?	-22%	?	10%
CCOC(=O)c1c(NC(=O)C2=COCCO2)sc2c1CCN(C(=O)OC)C2	·	·	-13%	·	2%	?	·	6%
CCSc1nnc(NC(=O)c2cc(=O)c3cc(C)ccc3o2)s1	-1.2%	·	5%[46.1 µM]	-6%	10%[46.1 µM]	-18%	·	·
CCCCn1c(SCC(=O)c2ccc(OC)cc2OC)nc2cc(S(N)(=O)=O)ccc21	-6.4%	-4%	-10%	?	-24%	1%	-22%	26%
Cc1noc(C)c1S(=O)(=O)N(CC(=O)N1CCCC1)c1ccc(C(C)C)cc1	2.1%	14%	·	18%	·	-25%	-21%	7%
Cc1cc(NC(=O)COC(=O)COc2ccc(C(=O)c3ccccc3)cc2)no1	-4.1%	3%	11%	-1%	0%	-11%	-16%	-3%
CCOc1ccc(S(=O)(=O)Nc2ccccc2C(=O)NCC2CCCO2)cc1 (configuration not stated)	-0.7%	4%	2%	8%	4%	·	-3%	12%
CCn1cc(Cl)c(C(=O)Nc2cccc(C(F)(F)F)c2)n1	·	1%	-16%[46.1 µM]	·	-15%	39%[activator]	·	6%
CCOC(=O)c1ccc(Oc2cn[nH]c2-c2ccc(O)cc2O)cc1	·	8%	·	·	·	0%	3%	3%
O=C(/C=C/c1ccco1)NC(=S)Nc1ccccc1N1CCCC1	·	0%	?	·	0%	-1%	2%	1%
Cc1ccc(C(=O)NCc2ccccn2)cc1NC1=NC2CS(=O)(=O)CC2S1 (configuration not stated)	·	1%	·	·	·	-5%	-4%	-7%
O=C(CN1CCN(c2ccc(F)cc2)CC1)N1CCC(Cc2ccccc2)CC1	-2.4%	-4%	?	10%	?	·	-30%	-10%
Cc1ccc(NC2c3ccccc3C(=O)N2CCN2CCOCC2)cc1 (configuration not stated)	6.0%	1%	·	-7%	·	-15%	6%	-10%
O=C(Oc1ccc2c(c1)C(=O)c1ccccc1CO2)c1ccccc1	-5.2%	-4%[6.58 µM]	13%[46.1 µM]	-4%	19%	21%	6%	-13%
CC(=O)c1c(C)[nH]c(C(=O)OCC(=O)Nc2cc(C(F)(F)F)ccc2N2CCOCC2)c1C	-6.9%	-2%	?	?	22µM*	-6%	-5%	5%
CCN(CC)CCNC(=O)c1ccc(NC(=O)Nc2cccc3ccccc23)cc1	·	-2%	?	·	?	-11%	-10%	14%
COc1cc(-c2nnc(-c3cccs3)o2)cc(OC)c1OC	-1.0%	1%	-24%	-1%	-14%	11%	-6%	9%
COc1ccc(Cc2noc(CN(C)CCN3CCc4ccccc4C3)n2)cc1OC	·	-1%	·	·	·	-19%	1%	11%
Cc1ccc(S(=O)(=O)N2CCN=C2SCc2c(F)cccc2Cl)cc1	·	?	18%	·	?	-27%	-4%	-15%
COc1ccccc1N(CC(=O)Nc1ccc2c(c1)OCCO2)S(C)(=O)=O	0.3%	4%	-2%	4%	-3%	?	2%	-3%
CCCOc1ccc(C(=O)OCC(=O)c2c(N)n(C)c(=O)n(C)c2=O)cc1OC	·	0%	-12%[46.1 µM]	·	·	9%	-3%	-13%
CC(=O)c1oc2ccccc2c1NC(=O)COC(=O)c1ccc(-n2nc(C)cc2C)cc1	-3.7%	3%	14%&14%[46.1 µM]	-8%	-1%	12%	-8%	-13%
COc1cc(OC)c(NC(=O)CC(C)=O)cc1Cl	2.5%	?	?	-5%	11%	-10%	16%	1%
c1cc(CNc2ccc3c(c2)OCO3)ccn1	-6.3%	-4%	0%	-12%	-4%	23%	2%	-8%
Cc1ccc(N)cc1C	8.5%	·	·	-2%	·	-30%	·	-11%
Cc1ccc(S(=O)(=O)N2CCCc3cc(NC(=O)c4ccc(F)c(F)c4)ccc32)cc1	-1.4%	·	·	-7%	-2%[46.1 µM]	-21%	·	·
COc1ccc(C(NC(=O)C(C)(C)C)NC(=O)C(C)(C)C)cc1	-0.4%	2%	0%&0%	-6%	-9%	1%	-1%	-21%
Nc1nc(SCC(=O)Nc2ccc3c(c2)OCO3)n[nH]1	·	1%	16%	·	23%	3%	·	-2%
O=C(CN1CCCCCC1=O)N1CCN(S(=O)(=O)c2cccs2)CC1	·	1%	·	·	·	7%	2%	2%
COc1ccc(OC)c(NC(=O)c2cccnc2Sc2ccccc2)c1	-4.3%	26%	5%	-1%	?	-5%	-1%	12%
Cc1ccc(Cl)cc1NC(=O)CNCC(c1ccccc1)N(C)C (configuration not stated)	·	-3%	?	·	15%	-8%	4%	0%
C/C(=N\NC(=O)c1ccccc1)c1ccc(N2CCOCC2)cc1	0.1%	5%	6%	-6%	1%	27%	-21%	11%
O=c1[nH]c(O)c(/C=C2/C=CC(c3cc(Cl)ccc3Cl)=N2)c(=O)[nH]1	·	-1%	?	·	13µM*	?	-63%	-6%
Cc1cc(C(F)(F)F)c(C#N)c(SCC(=O)Nc2nc3cc(Br)ccc3s2)n1	-9.2%	7%	?	20µM*	?	?	10%	-23%
Cc1cccc(NC(=O)NNC(=O)c2sccc2-n2cccc2)c1	·	-1%	?	·	3%[46.1 µM]	-1%	·	9%
O=C(Nc1ccc(F)cc1)c1nc2c(nnn2Cc2cccc3ccccc23)c(=O)[nH]1	·	1%	-14%[46.1 µM]	·	6%[46.1 µM]	-21%	2%	-1%
CCN1CCN(C(=O)Nc2cccc(C(F)(F)F)c2)CC1	16%	-4%	2%	-4%	-6%	10%	-1%	3%
O=C(CSc1nnc(-c2ccco2)o1)c1ccc[nH]1	·	-1%	?	·	?	24%	·	32%
O=C(O)CSCc1nc2scc(-c3ccccc3)c2c(=O)[nH]1	·	-3%	-8%[14.2 µM]	·	-2%	-13%	·	3%
COc1cccc2cc(C(=O)NC3CC(C)(C)NC(C)(C)C3)c(=O)oc12	·	·	2%[46.1 µM]	·	-3%	-3%	18%	-1%

(continued)
SMILES	Cruzain Triton	SARS PLpro yeast	MARV entry inh	Cruzain inh noDet	LASV entry inh	StopGo reporter	NS1 inh	RE007 growth inh
CCn1c(CCC(=O)N(C)CC(=O)Nc2cccc(F)c2)nc2cc(S(=O)(=O)N(C)C)ccc21	·	2%	-1%	·	15%	-19%	·	13%
CC(=O)Nc1ccc(NC2CCCCC2NS(=O)(=O)c2ccc(Cl)cc2)cc1 (configuration not stated)	·	0%	·	·	·	-5%	-18%	-2%
CCCCC(c1nnnn1CS(=O)(=O)c1ccc(C)cc1)N1CCN(c2ccccc2)CC1 (configuration not stated)	0.0%	-14%	14µM*	-17%	?	-14%	7.1µM*	-3%
O=C(c1nc2n(n1)C(c1ccc(Cl)cc1)C=C(c1ccccc1)N2)N1CCOCC1 (configuration not stated)	-3.6%	0%	-4%&1%	?	?	-3%	-13%	-8%
COc1ccc(C(=O)N2CCN(c3cccc(Cl)c3)CC2)cc1	-5.3%	10%	?	12%	-1%	10%	3%	-25%
Cc1cc(-c2onc(C)c2C(N)=O)no1	·	0%	6%[46.1 µM]	·	-20%	7%	2%	-6%
CC(/C=C1\SC(=S)N(C(C(=O)O)c2ccccc2)C1=O)=C\c1ccccc1 (configuration not stated)	·	0%	·	·	·	7%	-3%	-2%
COc1ccc(-c2ccc(OC)c([C@H]3[C@H]4C=CC[C@@H](C)[C@@H]4C(=O)N3Cc3ccccc3)c2)cc1C	·	2%	·	·	·	-21%	-3%	0%
CN(Cc1ccccc1)C(=O)CN1C(=O)C2C3C=CC(C3)C2C1=O (configuration not stated)	-1.1%	-10%	25%	-24%	0%	15%	-10%	11%
Cc1cnc(NC(=O)C2CC(=O)N(c3ccc4c(c3)OCCO4)C2)s1 (configuration not stated)	·	-5%	11%	·	2%[46.1 µM]	-10%	·	3%
CCC1CCCCN1CCCNC(=O)Cn1nc(-c2ccc(C)cc2)ccc1=O (configuration not stated)	3.4%	3%	?	4%	-5%	·	2%	-12%
Cc1cccc(-c2oc3ccc(-c4ccc5c(c4)OCO5)cc3c2C(=O)OCc2ccc(O)cc2)c1	·	2%	·	·	·	-11%	-15%	-14%
